Compound activity from PubChem.
miR-21 reporter: raises the signal of a miR-21 reporter; 340,000 tested, under 10 active; Potency, µM (series often up to 38.3 µM), inactives show top-dose reporter change, positive = more light; HeLa miR-21 FLuc reporter, luciferase, 48 h; active = well fitted rising curve with a large enough effect; inconclusive = small, poorly fitted or top-dose-only effect; inactive = no such curve, though single readings can be large or run the other way;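 also: % of control where 0% means no effect; miR-21 action dims this reporter so a rising signal means less miR-21 action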
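HeLa cells stably expressing CMV-driven firefly luciferase with a downstream miR-21 binding sequence, endogenously expressing miR-21, were treated with titrations (up to about 40uM final) for 48 hours at 37 degree Celsius. Luciferase luminescence was read after lysis.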
GLA inh pH 4.5: alpha-galactosidase A (human) inhibition, pH 4.5. P06280. purified enzyme, 4-MU-alpha-Gal fluorescence, pH 4.5. activity change, negative = inhibition, % at 105 µM. 230,000 tested, under 10 active. AID 1467; inconclusive = small, poorly fitted or top-dose-only inhibition, or a rising curve; inactive = flat fitted curve, though single readings scatter; no compound was filed as active;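 also: 0% = full activity with enzyme and -100% = basal without enzyme; dose as in the result columns while the protocol names 77 µM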
Rango complex inh: Rango-importin beta binding inhibition; Rango CFP/YFP FRET sensor + importin beta, 45 min; 340,000 tested, 0.031% active; Potency, µM (highest dose often 92.2 µM), for the others: at the top dose inhibition of complex formation; active = rising FRET ratio curve, often small or poorly fitted; inconclusive = mostly compound fluorescence or quenching in the first reads; inactive = flat curves in all reads;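 also: potency is read from the fitted curve at half-maximal effect; 0% = DMSO wells and 100% = buffer wells lacking importin beta; nearly all actives have a fitted effect of over 15% in size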
Target sequence (Q14974 whole entry, looked up): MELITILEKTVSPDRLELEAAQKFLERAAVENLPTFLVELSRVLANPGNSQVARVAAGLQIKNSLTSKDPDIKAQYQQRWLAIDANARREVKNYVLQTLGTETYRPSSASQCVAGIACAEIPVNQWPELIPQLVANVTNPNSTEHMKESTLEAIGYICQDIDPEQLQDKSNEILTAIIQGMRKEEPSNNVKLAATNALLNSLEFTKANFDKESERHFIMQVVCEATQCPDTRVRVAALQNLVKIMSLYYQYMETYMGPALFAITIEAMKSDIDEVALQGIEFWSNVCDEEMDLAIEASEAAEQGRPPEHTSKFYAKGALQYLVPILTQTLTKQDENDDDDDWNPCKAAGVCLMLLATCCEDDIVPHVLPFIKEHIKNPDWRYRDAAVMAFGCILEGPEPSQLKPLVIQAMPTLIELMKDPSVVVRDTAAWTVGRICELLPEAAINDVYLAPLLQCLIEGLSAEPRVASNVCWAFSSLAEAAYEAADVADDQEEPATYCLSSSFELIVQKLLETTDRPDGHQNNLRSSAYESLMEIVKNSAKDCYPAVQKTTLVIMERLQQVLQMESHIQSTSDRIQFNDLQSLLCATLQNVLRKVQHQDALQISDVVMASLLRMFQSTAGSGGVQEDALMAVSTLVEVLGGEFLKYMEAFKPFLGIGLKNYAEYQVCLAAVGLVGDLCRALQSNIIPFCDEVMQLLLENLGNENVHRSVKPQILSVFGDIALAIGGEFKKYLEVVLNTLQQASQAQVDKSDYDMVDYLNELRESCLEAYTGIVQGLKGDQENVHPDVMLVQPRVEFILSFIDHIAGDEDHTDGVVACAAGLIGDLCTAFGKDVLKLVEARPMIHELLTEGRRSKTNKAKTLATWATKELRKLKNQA
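FRET biosensor Rango (snurportin 1 IBB between N-terminal EYFP and C-terminal Cerulean), 50 nM in PBS/1 mM DTT/0.02% Tween-20/0.1% BSA, preincubated 5 min RT with compound; 0.125 microM importin beta added, 45 min RT, CFP/YFP FRET ratio read.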
Rango release inh: inhibitors of RanGTP-induced Rango-importin beta complex dissociation | Biochemical FRET Rango-importin beta, RanGTP-induced dissociation | 340,000 tested, 0.071% active | O95149+P62826 | Potency, µM (doses to about 46.1 µM), inactives show top-dose activity change, negative = inhibition; active means falling FRET ratio curve, often poorly fitted, with flat reads before Ran was added; inconclusive means other falling curves, or compound fluorescence or quenching; inactive means flat or rising ratio curve;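 also: potency is read from the fitted curve at half-maximal effect; % of control where 0% means no effect; nearly all actives have a fitted effect of over 45% in size; -100% = wells without RanGTP and RCC1; the record marks most hits as doubtful in a second field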
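Recombinant Rango FRET biosensor (EYFP–snurportin 1 IBB–cerulean CFP10) at 0.1 uM premixed with 0.25 uM importin beta in PBS, 1 mM DTT, 0.02% Tween-20, 0.1% BSA. Compound added 5 min; RanGTP-RCC1 (0.6 uM Ran, 2 mM GTP, 0.2 uM RCC1) then triggers release, read at 45 min.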
Numbers without * were called inactive; ? = inconclusive; . = not tested or not shown; & = joins results of further samples.

Rango release inh	SMILES	miR-21 reporter	Rango complex inh	GLA inh pH 4.5
-17%	COc1ccccc1N1CCN(C(=O)c2cccc(N3C(=O)NC4CC3(C)Oc3ccccc34)c2)CC1 (stereo unspecified)	16%	4.8%	-6
1%	CN1N=C2c3ccccc3CCC2C1c1ccc(Cl)cc1 (stereo unspecified)	-45%	-1.6%	-2
1%	O=S(=O)(Nc1nc2ccccc2nc1NCC1CCCO1)c1cccs1 (stereo unspecified)	-4%	2.2%	12
-11%	Nc1nc(N2CCN(c3cccc(Cl)c3)CC2)n[nH]1	-3%	-2.0%	3
-3%	CCN(CCn1cccn1)C(=O)CCc1nnc(CCCc2ccccc2)o1	-50%	-0.3%	6
-2%	CCC(C)(C)C1CCc2[nH]nc(C(=O)NC3CCCC3)c2C1 (stereo unspecified)	.	-2.7%	.
0%	Cc1cccc(C(=O)n2cnnc2N)c1	-2%	1.2%	0
26%	CC1CCCN(c2ccc3nncn3n2)C1 (stereo unspecified)	-12%	-5.1%	.
20%	COc1ccccc1C(=O)NCCC(=O)NC(C)CCc1ccccc1 (stereo unspecified)	.	-2.6%	.
0%	Cc1ccc(S(=O)(=O)CCC(=O)OCC(=O)Nc2ccc(N3CCOCC3)cc2)cc1	.	-0.1%	.
-19%	COc1ccc(-c2cnnc(N/N=C/c3ccc(O)c(OC)c3)n2)cc1	-8%	-1.4%	-23
-4%	CN(C)C(=O)c1ccc2c(c1)n(C)c(=O)n2C	-4%	2.6%	-3

(list continues)
Rango release inh	SMILES	miR-21 reporter	Rango complex inh	GLA inh pH 4.5
-4%	COc1ccc(NS(=O)(=O)c2cccc(C(=O)N3CCC3)c2)cc1	.	-2.4%	.
-3%	COc1ccccc1N(CC(=O)Nc1ccc(S(=O)(=O)N2CCOCC2)cc1)S(C)(=O)=O	1%	?	.
52%	CCN(C(=O)CSc1nnc(-c2ccco2)n1CC)c1c(N)n(Cc2ccccc2)c(=O)[nH]c1=O	.	1.2%	.
1%	COc1cc(C(=O)Nc2nc3ccccc3[nH]2)cc(OC)c1OC	-5%	0.0%	0
-7%	CSc1nc(NC(C)C)nc(N2CCOCC2)n1	-3%	0.5%	-1
-2%	CC1=C(C(=O)Nc2ccc(C(=O)NC(C)c3ccccc3)cc2)SCCO1 (stereo unspecified)	-3%	-0.7%	.
3%	O=C(OCCOCCN=C1NS(=O)(=O)c2ccccc21)c1ccccc1Br	1%	-0.2%	.
6%	COc1ccc(CNC(=O)C(C)N2CCN(c3ccc(C(C)=O)cc3)CC2)cc1 (stereo unspecified)	-1%	2.6%	.
8%	Cc1c(C(=O)N2CCCCC2)c(S(=O)(=O)N(C)Cc2ccccc2)c(C)n1C	0%	-6.1%	.
1%	O=C(C1CCN(S(=O)(=O)c2cccs2)CC1)N1CCc2ccccc2C1	-13%	-1.7%	-5
18%	CCCCc1nnc(NC(=O)C23CC4CC(CC(NC(C)=O)(C4)C2)C3)s1	-5%	0.9%	.
-15%	Cc1c(-c2ccc(Br)cc2)nc2ccccn12	-73%	1.3%	0

(cont.)
Rango release inh	SMILES	miR-21 reporter	Rango complex inh	GLA inh pH 4.5
-9%	Cc1cc(/C=C(\C#N)C(=O)NCc2ccco2)c(C)[nH]1	-35%	?	-11
-25%	O=C(NNC(=O)c1cc([N+](=O)[O-])ccc1Cl)c1cccs1	-3%	0.2%	2
?	CCCCN1C(=O)C2Cc3c([nH]c4ccccc34)CN2C1=S (stereo unspecified)	15%	?	-14
-8%	COc1cccc(/C=N/n2c(-c3cc(C)[nH]n3)n[nH]c2=S)c1	-5%	1.9%	2
?	CC[C@H](C)C(=O)O[C@H]1CCC=C2C=C[C@H](C)[C@H](CC[C@@H]3C[C@@H](O)CC(=O)O3)[C@H]21	10%&-1%	2.8%	-29&-6
?	Clc1ccc2nc(N3CCNCC3)nc(-c3ccccc3)c2c1	?	?	-3
3%	CSc1ccccc1C(=O)N1CCN(c2ccc(F)cc2)CC1	-9%	-0.3%	6
1%	Cc1cccc(-n2c(CNC(=O)c3ccc(S(=O)(=O)N(C)C)cc3)nnc2SCC(=O)Nc2ccc(F)cc2)c1	-4%	1.9%	5
11%	Cc1nc([N+](=O)[O-])cn1CC(O)c1ccc(Cl)cc1 (stereo unspecified)	3%	4.4%	7
6%	CC1(C)Cc2cccc(Oc3ccc(S(=O)(=O)N4CCCCC4)cn3)c2O1	-6%	0.8%	-2
-5%	CC(=O)c1ccc(-c2nnc(CCC(=O)N(C)Cc3cnc4ccccn34)o2)s1	-1%	-0.4%	7
-7%	CN(CC(=O)Nc1ccc(Cl)cc1)C1=NS(=O)(=O)c2ccccc21	.	0.0%	.

(cont.)
Rango release inh	SMILES	miR-21 reporter	Rango complex inh	GLA inh pH 4.5
3%	COc1ccc(C(=O)NC(=S)N2CCOCC2)cc1Br	-16%	-0.2%	.
2%	CCc1c(C(=O)N2CCCN(C)CC2)csc1C	-1%	0.0%	.
-1%	COc1ccc(COCC(O)CN(Cc2ccccc2)C(C)C)cc1OC (stereo unspecified)	0%	-0.7%	-3
10%	CC(=O)N/C(=C\c1ccccc1)C(=O)OCC(=O)NC1CCCC1	0%	-1.6%	2
-10%	O=C(CSc1nnc(-c2ccco2)o1)c1ccc(O)cc1O	-6%	1.4%	-1
-14%	O=C(/C=C/c1ccccc1Cl)Nc1ccc(Cl)cn1	-14%	-0.5%	3
0%	O=S(=O)(NN=C1CCCCC1)c1ccccc1	-2%	-0.1%	-16
?	Brc1ccc(-c2nc(-c3ccccc3)no2)o1	-50%	6.1%	2
5%	CCCCCOc1ccc(Cl)cc1CN1CCOCC1	-42%	8.4%	-1
-7%	C=CCOc1ccccc1CN1CCCCCC1	3%	-0.4%	.
-18%	OCC[C@@H]1C[C@H](O)[C@@H](O)[C@]2(CCCc3ccccc3O2)O1	-1%	3.6%	.
-6%	O=C(CSc1nnnn1-c1cccc(F)c1)NC1CCCCC1	.	1.1%	.

The final 3 entries of the section above are carried over, then new ones follow.
Rango release inh	SMILES	miR-21 reporter	Rango complex inh	GLA inh pH 4.5
-7%	C=CCOc1ccccc1CN1CCCCCC1	3%	-0.4%	.
-18%	OCC[C@@H]1C[C@H](O)[C@@H](O)[C@]2(CCCc3ccccc3O2)O1	-1%	3.6%	.
-6%	O=C(CSc1nnnn1-c1cccc(F)c1)NC1CCCCC1	.	1.1%	.
-6%	CC(=O)c1sc(NC(=O)C2CC(=O)N(Cc3ccco3)C2)nc1-c1ccccc1 (stereo unspecified)	.	4.1%	.
-15%	O=C(NCCc1ccccc1)c1n[nH]c(=O)c2ccccc12	-43%	-1.1%	4
-8%	COCCN(C(=O)c1ccc(OC2CCN(S(=O)(=O)N(C)C)CC2)cc1)C(C)C	10%	0.1%	.
10%	O=C(Cc1ccc(F)cc1)N[C@@H]1c2ccccc2CC[C@H]1OCc1ccccc1	.	-1.4%	.
-7%	COc1ccc(Cn2nnnc2C(C(C)C)N(Cc2ccco2)Cc2cccs2)cc1 (stereo unspecified)	22%	-1.6%	-2
-19%	COc1ccc(/C=C/C(=O)NC(=S)NNC(=O)c2ccco2)cc1	-1%	-1.3%	-4
0%	CCOC(=O)CCn1cc(F)c(=O)n(Cc2ccccc2)c1=O	-3%	0.1%	-2
7%	O=C(CNS(=O)(=O)/C=C/c1ccccc1)OCC(=O)N1CCC(Cc2ccccc2)CC1	-4%	0.3%	3
?	O=C(NC1=NCCS1)C1CC(=O)N(c2ccc(Cl)cc2)C1 (stereo unspecified)	-26%	-1.1%	2
-12%	CCCn1c(SCC(=O)Nc2ccc(NC(=O)CC)cc2)nc2c1c(=O)n(C)c(=O)n2C	0%	-6.4%	.
-5%	CCCn1nnnc1SCC(=O)NCc1ccccc1	-4%	0.4%	-5
4%	O=C1CC(SCCO)C(=O)N1c1ccccc1 (stereo unspecified)	0%	0.2%	-8

Additional results.
Rango release inh	SMILES	miR-21 reporter	Rango complex inh	GLA inh pH 4.5
-8%	Cc1cccc(CNC(=O)C2CCC(=O)N(Cc3ccccc3F)C2)n1 (stereo unspecified)	-3%	2.2%	.
-10%	CC(=O)Nc1ccc(Cc2ccncc2)cc1	-1%	1.6%	-8
2%	CC(C)C(=O)Nc1cccc(NC(=O)c2ccc(Cl)cc2Cl)c1	-20%	-0.3%	-10
-9%	c1ccc(-c2ccccc2OCCn2cncn2)cc1	-8%	-0.7%	4
-8%	O=C(NN1C(=O)c2ccccc2C1=O)C1CC2CCC1C2 (stereo unspecified)	-5%	-8.0%	-10
-20%	CCOC(=O)c1ccc(OCCOc2ccccc2C)cc1	-31%	-1.3%	.
8%	CCCN1CCc2[nH]c(=S)[nH]c(=O)c2C1	-1%	-0.3%	1
1%	CCCN(C(=O)CSCC(=O)Nc1ccc(OC)cc1)c1c(N)n(Cc2ccccc2)c(=O)[nH]c1=O	.	?	.
23%	CCC1=Nc2ccc(Br)cc2C(c2ccccc2)N1CC(=O)OC (stereo unspecified)	13%	-1.3%	1
?	C=CCN1C(=O)C(CC(=O)O)S/C1=N/N=C/c1ccc(N(CC)CC)cc1 (stereo unspecified)	.	?	.
1%	CCOc1cccc(/C=C/c2ccc3cccc(O)c3n2)c1O	-21%	1.9%	.
13%	CCCCCCOc1ccc(C(CC(=O)NC)C(=O)O)cc1 (stereo unspecified)	3%	-0.3%	2

4 compounds from above, reduced to miR-21 reporter and Rango complex inh:
SMILES | miR-21 reporter | Rango complex inh
c1ccc(-c2ccccc2OCCn2cncn2)cc1 | -8% | -0.7%
O=C(NN1C(=O)c2ccccc2C1=O)C1CC2CCC1C2 (stereo unspecified) | -5% | -8.0%
CCOC(=O)c1ccc(OCCOc2ccccc2C)cc1 | -31% | -1.3%
CCCN1CCc2[nH]c(=S)[nH]c(=O)c2C1 | -1% | -0.3%

Next results
Rango release inh	SMILES	miR-21 reporter	Rango complex inh	GLA inh pH 4.5
-13%	Cc1nn(C)c(Nc2ccc(Br)cc2)c1Br	16%	0.2%	-7
-5%	CN(C(=O)C1CCCCC1)C1CCS(=O)(=O)C1 (stereo unspecified)	.	-3.1%	.
3%	CCOc1ccc(N(C)S(=O)(=O)c2ccc(C)c(C(=O)NCc3cccs3)c2)cc1	.	?	.
-9%	CC(=O)C1=C(C)N(CC2CC2)C(=O)N[C@H]1c1cccs1	3%	2.3%	6&4
5%	CCC(C)NC(=O)c1cccc(OCc2c(C)noc2C)c1 (stereo unspecified)	-2%	1.1%	0
0%	Cc1ccc(N2C(=O)N(CC(=O)Nc3ccc(C)cc3C)C(=O)C2C)cc1 (stereo unspecified)	-19%	-0.2%	6
-3%	CCN(c1cccc2ccccc12)S(=O)(=O)c1ccc(Cl)nc1	17%	0.0%	-13
-4%	COCC(=O)Nc1ccc2c(c1)OCO2	-9%	1.9%	-3
12%	OC(CN1CCCCC1)c1ccc2c3c(cccc13)CC2 (stereo unspecified)	.	-4.7%	.
-5%	CCOC(=O)c1sc(NC(=S)NC(=O)CC(C)C)cc1C	-35%	-3.3%	-4
14%	NC(c1ccccc1)c1ccncc1 (stereo unspecified)	-3%	8.3%	.
-17%	O=C(CC(SCCO)c1ccc([N+](=O)[O-])cc1)c1ccco1 (stereo unspecified)	-5%	-2.1%	.

The list goes on.
Rango release inh	SMILES	miR-21 reporter	Rango complex inh	GLA inh pH 4.5
-14%	COc1ccc(S(=O)(=O)NCCOc2ccccc2)cc1-n1cnnn1	-4%	-0.7%	1
-7%	CC(C)=CC(=O)Nc1ccc(OCc2ccccc2)cc1	-28%	-3.7%	7
-5%	Cn1c(N)c(C(=O)COC(=O)c2cccc(S(=O)(=O)N3CCCCC3)c2)c(=O)n(C)c1=O	-18%	?	2
9%	O=C(c1cccnc1)N1C2CCC1CC(O)(c1ccc(F)cc1)C2 (stereo unspecified)	1%	-0.3%	1
10%	CC(OC(=O)CC1CCCCC1)C(=O)Nc1ccc(F)cc1 (stereo unspecified)	.	-3.0%	.

These rows are one share of the data; rates above refer to the full screens.
